gsp antag: antagonizes gsp, the McCune-Albright syndrome mutation; 0.4% of 340,000 active; Potency, µM (top dose mostly 76.9 µM), for inactives: at the top dose activity change, negative = inhibition, actives largely listed as inhibitors; gsp-mutant cells, cAMP HTRF, 30 min; control for the full effect not named in the record; active = falling curve of any shape with a large fitted effect; inconclusive = falling curve, mostly with a smaller effect; inactive = flat or rising curve; cell line not stated here;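 further: intracellular cAMP measured with PDE inhibitor Ro 20-1724 present during compound exposure; potency means the concentration at half of the fitted maximal effect; on the % scale 0 is the no-effect control and ±100 the full control effect; nearly all actives have a fitted effect of over 65% in size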
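Measurement of cellular cAMP by homogeneous time-resolved fluorescence following a 30 min compound exposure at 37C. The PDE inhibitor […] was present throughout; the assay buffer was DPBS with 0.05% BSA and 0.005% Tween 20.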
TRPML1 ag: agonists of human TRPML1 channel; 0.12% of 410,000 active; TRPML1-expressing cells, Ca2+ dye fluorescence, FDSS; host cell line not named in the record; reference of the full effect not given here; activation, % (test concentration not listed); AID 624414; in the data active = activation above about 50%; inconclusive = about 30% to 50%; inactive = below about 30%; further: 0% is about no effect; the text of the record puts the active cut at 80%
Target sequence (Q9GZU1 whole entry, looked up): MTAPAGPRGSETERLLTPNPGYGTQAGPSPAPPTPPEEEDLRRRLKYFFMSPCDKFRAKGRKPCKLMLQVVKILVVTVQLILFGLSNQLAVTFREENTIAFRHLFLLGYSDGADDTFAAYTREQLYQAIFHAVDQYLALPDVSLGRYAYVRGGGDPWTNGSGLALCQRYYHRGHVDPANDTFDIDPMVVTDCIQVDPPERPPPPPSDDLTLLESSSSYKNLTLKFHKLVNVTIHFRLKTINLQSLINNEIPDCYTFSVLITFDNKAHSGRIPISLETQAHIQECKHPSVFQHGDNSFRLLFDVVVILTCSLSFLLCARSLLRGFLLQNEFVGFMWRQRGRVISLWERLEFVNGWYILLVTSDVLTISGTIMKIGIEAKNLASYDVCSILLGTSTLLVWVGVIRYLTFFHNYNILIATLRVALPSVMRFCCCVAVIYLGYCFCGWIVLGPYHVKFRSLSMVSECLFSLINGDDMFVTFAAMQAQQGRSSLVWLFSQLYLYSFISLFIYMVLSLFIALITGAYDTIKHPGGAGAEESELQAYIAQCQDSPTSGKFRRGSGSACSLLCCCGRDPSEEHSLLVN
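TRPML1-DL cells, Tet-induced overnight (~16 h, 37 degrees C), loaded 45-90 min at room temperature with Ca8 no-wash calcium dye plus quencher. FDSS fluorescence: 10 s baseline, compound pin-transfer, 110 s agonist read, then EC80 54-4 (4uM final) and 110 s antagonist read.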
gsp agonist: activates gsp, the McCune-Albright syndrome mutation. gsp mutant cells, cAMP HTRF, 30 min; control for the full effect not named in the record. Potency, µM (doses to about 76.9 µM), without a hit: top-dose activation (cAMP increase), actives largely listed as activators. 0.13% of 340,000 active; active = well fitted activation curve with a large enough effect; inconclusive = small, poorly fitted or top-dose-only effect, or another doubt; inactive = no such curve, though single readings can be large or run the other way; cell line not stated here;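 further: phosphodiesterase inhibitor Ro 20-1724 added with compounds to block cAMP breakdown; potency means the concentration at half of the fitted maximal effect; nearly all actives have a fitted effect of over 60% in size; about a fifth of the inactives were tested at one dose only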
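Cells stably selected in G418 were plated at 2000/well, grown 16-24 hr, then given compounds in DMSO with the PDE inhibitor […] (300 uM solution added) for 30 min at 37C; cAMP was read by HTRF.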
ClpP mod: qHTS Assay for Activators of ClpP; AID 651965, 2013; purified B. subtilis ClpP, FRET peptide cleavage, 20 min; 1.9% of 340,000 active; ATP-dependent Clp protease proteolytic subunit (Bacillus subtilis (strain 168)), P80244; Potency, µM (series often up to 57.5 µM), inactives show at the highest dose activity change, negative = active; active = well fitted falling curve with a large enough effect; inconclusive = small, poorly fitted or top-dose-only effect; inactive = no such curve, though single readings can be large or run the other way; further: potency means the concentration at half of the fitted maximal effect; the source files actives as falling curves though it sought activators and does not explain the sign; nearly all actives have a fitted effect of over 65% in size; many hits overshoot -100%
Target sequence (P80244 whole entry, looked up): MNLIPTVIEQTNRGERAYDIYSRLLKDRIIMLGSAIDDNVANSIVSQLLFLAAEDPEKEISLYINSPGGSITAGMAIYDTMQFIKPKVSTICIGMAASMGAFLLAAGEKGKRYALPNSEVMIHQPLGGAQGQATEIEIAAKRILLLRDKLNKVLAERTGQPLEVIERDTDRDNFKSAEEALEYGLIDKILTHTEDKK
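Purified B. subtilis ClpP, 10 microg/mL final in Tris/HCl pH8 with KCl, BSA, glycerol and Tween-20, cleaved an Abz/nitrotyrosine-quenched decapeptide. Fluorescence (ex 320, em 430) was read at 0 and 20 min at room temperature. Delta was normalized to 5.8 microM ADEP and DMSO/no-enzyme controls.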
TRPML1 blocker: human mucolipin-1 channel inhibition. AID 624415. activity change, negative = inhibition, % (test concentration not listed). Q9GZU1. TRPML1-inducible cells, Ca2+ dye fluorescence, FDSS; hits give low values; inhibition of EC80 agonist-evoked calcium signal. 0.02% of 390,000 active; in the data active means activity change below about -50%; inconclusive means about -30% to -50%; inactive means above about -30%;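 further: stimulus is agonist 54-4 at its EC80 concentration; on the % scale 0 is the no-effect control and ±100 the full control effect; compound concentration not given in the record; the text of the record puts the active cut at -80%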
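Tet-induced TRPML1-DL cells loaded with Ca8 no-wash calcium dye were read kinetically on FDSS. Compound addition was followed by EC80 agonist 54-4 (4 uM final); inhibition was read over 110 s.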
Menin-MLL FL inh: inhibitors of human menin-MLL interaction, wild-type MLL peptide. Fluorescence polarization, fluorescein-MLL peptide displacement from menin. FP activity change, % at 61.4 µM. 290,000 tested, under 10 active. AID 1766; inconclusive = falling polarisation curve, or a change in total fluorescence; inactive = total fluorescence flat and polarisation flat or rising; no compound was filed as active; the % refers to the polarisation; negative = inhibition;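 further: % of control where 0% means no effect; inhibitors lower the polarisation; unlabelled MLL peptide was the positive control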
* hit, by the source's call; ? = inconclusive; . = no result given; [ ] = remark or other dose.

SMILES	gsp antag	TRPML1 ag	gsp agonist	ClpP mod	TRPML1 blocker	Menin-MLL FL inh
CCc1ccc(NC(=S)N2CCNC(=O)C2CC(=O)OC)cc1 (configuration not stated)	8.3%	0.0	6.3%	.	-8.5	4.1
O=C(COc1ccc(S(=O)(=O)N2CCCCC2)cc1)Nc1ccccc1F	-3.9%	1.5	?	1.7%	8.8	.
Cc1cn(C)c(CC(=O)N2CCN(c3ccccc3F)CC2)c1C(=O)O	.	-0.6	.	0.0%	19.0	.
O=C(Cn1nc(N2CCN(c3ccccc3)CC2)ccc1=O)NCc1ccccc1F	.	2.0	.	-0.4%	16.0	.
NC1=NCC(O)=C1c1nc2ccccc2[nH]1	1.2%	0.6	-2.2%[15.4 µM]	-3.7%	3.3	-6.3
Cc1ccc(C)c(N2CCN(C(=S)Nc3ccc4nc(N5CCN(C)CC5)cc(C)c4c3)CC2)c1	?	.	?	3.2%	.	-5.7
COC(=O)c1ccccc1NC(=O)c1ccc(COc2ccccc2)o1	2.7%	2.8	10.7%	?	-14.1	5.7
CN(C)c1nc(N)nc(CSc2n[nH]c(-c3ccccc3)n2)n1	0.7%	-0.2	16.5%	-0.8%	-19.1	3.0
CC1CN(C(=O)c2ccccc2)C(=Nc2cccc(S(=O)(=O)N(C)C)c2)S1 (configuration not stated)	-9.3%	0.8	-23.0%	0.5%	-1.2	2.7
CCN1CCN(Cc2nc3cc(NC(=O)c4cc(OC)c(OC)c(OC)c4)ccc3n2CC)CC1	.	-0.4	.	-6.1%	13.2	.
CCOC(=O)c1c(C)[nH]c(C(=O)COC(=O)C(C)Oc2ccc(Cl)cc2Cl)c1C (configuration not stated)	-6.1%	2.1	?	-4.0%	-8.6	8.5
Cc1nc(C)n(C)c(=O)c1-c1ccccc1	5.0%	-1.1	6.7%[15.4 µM]	1.8%	-8.9	1.3
CCOc1cc(C2C(C(=O)c3ccc(C)cc3)=C(C(=O)OC)Nc3nnnn32)ccc1O (configuration not stated)	-9.2%	-0.9	7.8%	0.6%	5.6	0.9
O=C1NN(c2ccccc2)C(=O)C1=Cc1ccccc1	.	0.2	25.2%	-0.8%	15.4	.
Cc1cccc(N2CCN(CC(=O)N(C)Cc3ccccc3)CC2C)c1 (configuration not stated)	8.7%	2.4	3.7%	-1.9%	-24.6	-2.2
O=[N+]([O-])c1ccc(N/N=C/c2sc(N3CCOCC3)nc2-c2ccccc2)c(S(=O)(=O)Nc2ccc(Cl)cc2)c1	-25.4%	15.7	?	-0.5%	2.3	?
COc1ccccc1C(=O)NCC(c1cccnc1)N1CCc2ccccc2C1 (configuration not stated)	.	-0.4	.	-0.7%	8.4	.
CCc1nn(C(CC)C(=O)NCC(C)c2ccccc2)c(=O)c2cc3occc3n12 (configuration not stated)	-6.4%	-0.9	11.2%	-6.5%	1.2	1.5
CC(O)CNc1nc2ccccc2n1CC(=O)NCC(F)(F)F (configuration not stated)	-38.7%	-0.3	9.9%[15.4 µM]	.	1.0	1.9
Cc1ccc(NC(=O)CCSCCC(=O)Nc2ccc(C)c(C)c2)cc1C	-17.0%	3.7	-32.3%[inhibitor]	-1.5%	0.7	7.3
COc1cc(OC)cc(C(=O)NCCc2csc(-c3ccc(C(F)(F)F)cc3)n2)c1	.	6.1	.	31.6µM*	21.9	.
Nc1c(C(=O)NC2CC2)sc2nc3c(c(-c4ccco4)c12)CC/C3=C/c1ccco1	-30.2%	0.4	-59.2%[inhibitor]	-2.8%	1.2	10.7
CS(=O)(=O)Nc1ccc(-c2nnc3n2CCCCC3)cc1	11.4%	.	2.0%	-11.1%	.	-1.2
COc1ccc(S(=O)(=O)N2CCC(C(=O)Nc3ccccc3N3CCCC3)CC2)cc1OC	?	-0.3	1.2%	-0.5%	-0.3	-1.4
O=[N+]([O-])c1ccc(F)cc1OCc1cccc(S(=O)(=O)N2CCOCC2)c1	4.8%	0.0	12.7%	-1.6%	-9.1	.
Cc1nc2ccccn2c1C(=O)N/N=C/c1ccc(CNC(=O)C(=O)Nc2ccccc2)o1	3.0%	2.0	4.5%	-7.2%	16.2	.
Cc1c(NC(=O)c2cc(S(=O)(=O)N3CCCCC3)ccc2Cl)c(=O)n(-c2ccccc2)n1C	3.2%	0.3	?	.	0.9	.
Cc1cccc(Oc2ccccc2NC(=O)CN2C(=O)NC3(CCCC3)C2=O)c1	0.0%	-1.1	-4.4%[15.4 µM]	.	1.3	.
COc1cccc(NC(=O)NCCCSC2CCCCC2)c1	-35.9%	0.2	?	-4.3%	45.1	2.6
O=C(CSc1nnc2ccc(-c3ccncc3)nn12)Nc1ccc(F)cc1	-5.0%	-0.4	?	-2.4%	29.8	.
CCCS(=O)(=O)N1CC(=O)N(c2cc(C)cc(C)c2)C(C)(C(=O)NC2CCCCCC2)C1 (configuration not stated)	.	-0.4	.	-3.2%	0.5	.
CN1CCN(NC(=O)c2cc(-c3ccc(Cl)s3)nc3ccccc23)CC1	-8.3%	0.1	1.8%	.	-11.0	0.1
COc1ccc(N2C(=O)CSC23C(=O)N(Cc2ccc(C)cc2)c2ccccc23)cc1Cl (configuration not stated)	.	3.2	.	-1.3%	-6.1	.
O=C(Nc1ccc2nc(-c3ccccn3)c(-c3ccccn3)nc2c1)N1CCOCC1	5.3%	1.2	-1.2%[15.4 µM]	.	19.1	2.9
COC(=O)C1CCN(C(c2ccc(OC)c(OC)c2)c2sc3nc(C)nn3c2O)CC1 (configuration not stated)	8.4%	-0.3	4.8%	2.2%	-7.7	6.8
COc1ccc(CCNC(=O)CSc2cn(CCNC(=O)c3c(F)cccc3F)c3ccccc23)cc1OC	.	0.2	.	-0.8%	13.0	.
C/C=C/C(=O)OCC(=O)Nc1cccc(Br)c1	6.4%	0.6	5.8%[15.4 µM]	.	19.1	-1.2
Cc1ccc(C(=O)CSc2cc(C)nc(SCC(=O)c3ccccc3)n2)cc1	?	0.3	?	-0.5%	47.8	0.3
CC(Oc1ccccc1)C(=O)Nc1ccc(S(=O)(=O)Nc2nccs2)cc1 (configuration not stated)	-3.8%	-0.3	2.2%[15.4 µM]	.	10.4	0.4
O=C(NCCn1cc(SCc2cccc(F)c2)c2ccccc21)c1cccc(C(F)(F)F)c1	.	2.3	.	-2.3%	-5.5	.
O=C(NCc1ccccc1)c1ccc(S(=O)(=O)N2CCCc3ccccc32)cc1	3.6%	4.3	-21.4%	-0.4%	4.8	3.8
COc1ccc(/C=C/C(=O)c2ccc(NS(=O)(=O)c3ccc(C)cc3)cc2)cc1O	-4.6%	0.0	0.0%[15.4 µM]	-3.3%	10.0	0.8
CCC(=O)c1c[nH]c(C(=O)NCc2cccs2)c1	7.1%	-0.1	-15.1%[15.4 µM]	.	-7.7	4.5
COc1ccc(NC(=O)CSc2ccc3nnc(-c4ccccn4)n3n2)cc1	13.3%	0.7	?	-0.7%	-0.9	.
CC(C)Cc1nc(N2CCN(C(=O)C(C)C)CC2)c(C#N)c2c1CCC2	-3.9%	-0.7	-6.7%	20µM*	2.1	1.0
CCC(C(=O)Nc1ccccc1)n1nc(-c2cc(C)ccc2C)ccc1=O (configuration not stated)	.	2.1	.	-1.2%	-7.2	.
Cc1sc2ncn(CC(=O)NCC(=O)N(C)C3CCCCC3)c(=O)c2c1C	7.8%	-0.2	?	-4.2%	19.3	0.5
CCOC(=O)CSc1ccc2nnc(-c3cccs3)n2n1	-2.3%	-1.0	?	-1.1%	-0.6	-2.4
Oc1ccc(CN2CCN(c3ncccn3)CC2)cc1	4.3%	-0.5	7.6%	-0.4%	-9.5	-0.7
C#CCOCCOCCOCCNc1nc(N2CCN(C(=O)[C@H](CCCN=C(N)N)n3cc(C(N)[C@@H](C)CC)nn3)CC2)nc(N2CCN(C(=O)[C@H](CC(N)=O)n3cc([C@@H](N)CC(N)=O)nn3)CC2)n1 (some centres not stated)	0.3%	0.3	.	-3.3%	2.5	.

(continued)
SMILES	gsp antag	TRPML1 ag	gsp agonist	ClpP mod	TRPML1 blocker	Menin-MLL FL inh
Cc1ccccc1OCc1nnc(SCC(=O)N2CCc3ccccc32)n1C	7.8%	1.0	-7.3%	-0.5%	-2.4	4.6
COc1ccc(S(=O)(=O)N2CCCCCC2)cc1C(=O)OC(C)C(N)=O (configuration not stated)	-5.7%	0.6	0.1%[15.4 µM]	.	30.0	0.1
COc1ccccc1CNc1nc2nc(C)c(Cl)c(C)n2n1	.	0.4	.	-15.4%	-15.1	.
CCn1c2ccccc2c2cc(NC(=O)COC(=O)c3cccc(S(=O)(=O)NC)c3)ccc21	-15.0%	0.7	?	-4.0%	-8.2	5.7
COC(=O)C(Cc1ccc(O)cc1)NC(=O)CCOc1ccc(OC)cc1 (configuration not stated)	7.8%	0.8	-0.7%	-0.7%	-5.6	1.6
CCC(CC)C(=O)c1c[nH]c(C(=O)NCC2CCCO2)c1 (configuration not stated)	5.0%	-0.7	-48.7%[inhibitor]	0.3%	-5.7	2.3
CCOC(=O)c1c(CSC(=N)N)n(-c2ccc(C)cc2)c2cc(Br)c(OC(C)=O)cc12	6.7%	0.3	-13.0%	-3.4%	-15.3	-7.2
O=C(Nc1ccccc1)N(CCN1CCOCC1)Cc1ccccc1F	-6.6%	-0.1	-9.1%	-1.7%	53.5	0.6
Cc1ccc(CN=C(N)Nc2nc(C)cc(C)n2)cc1	30.0%	-0.9	0.1%[15.4 µM]	1.7%	19.0	-0.8
CCOC(=O)N1CCN(S(=O)(=O)N2CCCC(C(=O)NCCc3ccc(Cl)cc3)C2)CC1 (configuration not stated)	0.5%	-0.7	?	1.8%	-9.7	2.4
COc1cc(Nc2nc3c(S(=O)(=O)c4ccccc4)nnn3c3ccc(Cl)cc23)cc(OC)c1	.	-1.1	.	-20.2%	-1.3	.
COc1ccc(CNC(=O)C(=O)Nc2cc(Cl)ccc2OC)cc1	.	-0.5	.	39.0%	4.5	.
Cc1ccc(/C=C(/C#N)c2nc(CCN3C(=O)c4ccccc4C3=O)cs2)cc1	-15.5%	0.1	?	-3.6%	-9.3	4.4
COC(=O)c1ccc(NC(=O)NS(=O)(=O)c2ccc(C)cc2)cc1	4.1%	-0.4	2.4%	-1.9%	-0.6	1.9
CCOc1ccc(C(=O)Nc2ccc(S(=O)(=O)Nc3nc(C)cc(C)n3)cc2)cc1OC	.	-0.4	.	0.8%	-12.8	.
CCn1nc(C(=O)NNC(=O)CCOc2cc(C)ccc2C)c2ccccc2c1=O	5.4%	0.3	-25.4%	0.6%	-16.7	-3.8
CC(C)N(C(=O)[C@H]1C[C@H](CC(=O)NCc2ccco2)C(=O)N2CCc3c([nH]c4cc(CCC(=O)N(C)C)ccc34)[C@]12C)C(C)C	-8.9%	-0.7	.	-5.2%	7.9	.
